# Compound activity as filed in PubChem.
# MgrA-DNA mod = modulators of Staphylococcus aureus MgrA DNA binding; fluorescence polarization; inhibition, %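 (about 10 µg/mL by stock and volumes)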; actives 0.13% (n = 84,000);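 active means above 50% in either of two replicates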;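 further: 0% = protein plus DNA without compound and 100% = DNA alone without protein; higher means less MgrA bound to DNA so lower polarization; one replicate is shown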
# S aureus helic = blocks Staphylococcus aureus DNA helicase; purified S. aureus helicase, fluorescence unwinding assay; about half of the hits fall short of the stated cut; inhibition, %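 (tested at about 80 µM)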; actives 0.05% (n = 120,000); AID 485395;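 active means both duplicates at 50% or more, or one of them with a favoured structure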;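 further: 0% = mean of negative control wells and 100% = mean of positive control wells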
# * = called active by the depositor; . = not tested or not shown; & = joins results of further samples.
SMILES,MgrA-DNA mod,S aureus helic
CCCCn1c(C)c(C(=O)OCC)c2cc(OC(=O)COc3ccccc3C)c3ccccc3c21,3.1,.
C[C@@H]1NCCc2cc(O)c(O)cc21,-2.0,.
C[C@]12CCC3[C@@H](CC[C@@H]4C[C@H](O)CC[C@]34C)[C@@H]1CCC2=O (stereo partly drawn),0.6,.
Cc1ccc(-c2nc3ccc(C)cn3c2CC(=O)N(C)C)cc1,0.4,.
CC(=O)N1C(C(=O)O)CSC12CCN(C)CC2 (stereo not drawn),-0.9,4
Clc1ccc(CC2=NCCN2)cc1,0.6,4
O=C(O)/C=C/c1ccc2c(c1)OCO2,-0.9,-11
COCCCNC1CCC(C)C1 (stereo not drawn),2.0,4
N#Cc1ccc(CN2CCNCC2)cc1,.,9
O=C(O)Cn1cc(C=C2C(=O)NC(=O)NC2=O)c2ccccc21,-3.4,20
c1csc(-c2ccc(-c3cccs3)s2)c1,0.1,.
CC12CC[C@@H](O)CC1CCC1C2CCC2(C)C(C(=O)O)CCC12 (stereo partly drawn),-0.4,-4
CC12C/C(=C\c3ccccc3)C(=O)C[C@@H]1CCC1C2CCC2(C)C1CC[C@]2(C)O (stereo partly drawn),-2.8,.
CCOC(=O)C1=C(N)OC(C)=C(C(=O)OC(C)C)C12C(=O)Nc1ccccc12 (stereo not drawn),0.5,.
CC12CCC3C(CC[C@@]4(C)CC(=O)CCC34CO)C1CCC2=O (stereo partly drawn),-1.4,.
COc1ccccc1N1CCN(Cc2cccc([N+](=O)[O-])c2)CC1,-2.7,.
N#CSCC(=O)N1c2ccccc2CCc2ccccc21,-12,0
C[N+](C)(C)Cc1ccccc1,-3.1,-15
O=C(C1c2ccccc2C(=O)N2CCCCC12)N1CCCCCC1 (stereo not drawn),.,10
CCCCn1c(C)c(C(=O)OCC)c2cc(OC(=O)c3cccc([N+](=O)[O-])c3)c3ccccc3c21,-0.6,.
Cc1ccc(N=CN(C)C=Nc2ccc(C)cc2C)c(C)c1,0.4,.
CCOC(=O)C1(c2ccccc2)CCN(Cc2cccc(C(=O)O)c2)CC1,-0.3,9
N#CC(/C=C/c1ccccc1)N1CCOCC1 (stereo not drawn),2.9,.
c1ccc(C(OCCN2CCNCC2)c2ccccc2)cc1,-3.3,3
COC(=NC1CCCCC1)C(O)c1c[nH]c2ccccc12 (stereo not drawn),3.9,7
O/N=C/c1ccc2c(c1)OCO2,-0.1,.
CC(C)C1(C)N=C(c2ncccc2C(=O)O)NC1=O (stereo not drawn),1.9,-14&3
CC12CCC3C4CCC(=O)C=C4CCC3C1CCC2=O (stereo not drawn),0.0,.
O=C(Nc1ccc(Br)cc1)C12CCN(CC1)Cc1ccccc12,-0.7,1
O=C1CN=C(c2ccccc2)c2c(sc3c2CCCC3)N1CCN1CCOCC1,-4.8,14
O=c1[nH]c(=S)[nH]c(O)c1C(c1ccc(F)cc1)N1CCCCC1 (stereo not drawn),.,13
Clc1ccccc1Nc1ncnc(-n2cccc2)n1,-0.5,.
CC(C)CC12CN3CCN(CC(C3)/C1=N/O)C2,0.9,2
c1cncc(CNCCc2c[nH]c3ccccc23)c1,-6.4,-1
Cc1cc(N2CC3CC(C2)c2cccc(=O)n2C3)n2ncnc2n1 (stereo not drawn),-4.5,-5
CC1=C(C#N)C(c2cnc[nH]2)C2=C(CCCC2=O)N1 (stereo not drawn),-0.8,.
O=C1NC(=O)C(=Cc2cn(CCOc3ccc4c(c3)OCO4)c3ccccc23)C(=O)N1,17,-5
C[C@@]1(CO)[C@H](O)CC[C@@]2(C)[C@H]1CC[C@H]1C[C@@H]3C[C@@]12CC[C@]3(O)CO,0.8,.
c1ccc2[nH]c(C3CCNCC3)nc2c1,0.8,11
CC1CN=C(Nc2ccc(F)cc2)S1 (stereo not drawn),1.4,-2

# Fetched by structure from the list above (5):
SMILES,MgrA-DNA mod,S aureus helic
CC12CCC3C4CCC(=O)C=C4CCC3C1CCC2=O (stereo not drawn),0.0,.
O=C1NC(=O)C(=Cc2cn(CCOc3ccc4c(c3)OCO4)c3ccccc23)C(=O)N1,17,-5
O=c1[nH]c(=S)[nH]c(O)c1C(c1ccc(F)cc1)N1CCCCC1 (stereo not drawn),.,13
c1ccc2[nH]c(C3CCNCC3)nc2c1,0.8,11
c1ccc(C(OCCN2CCNCC2)c2ccccc2)cc1,-3.3,3

# The results go on.
SMILES,MgrA-DNA mod,S aureus helic
CC(c1ccccc1F)n1cc(C(=O)Nc2ccc3nc[nH]c3c2)nn1 (stereo not drawn),-1.7,3
O=C1CC(=O)N(C2CCCCC2)C(=O)N1,-4.0,5
FCCOc1ccc(OCCF)cc1,-0.6,4
CC(=O)OC1C[C@@H]2CCC3C4CCC(OC(C)=O)C4(C)CCC3C2(C)C/C1=C\c1ccccc1 (stereo partly drawn),-1.6,.
CC(C)c1ccc(C(=O)C2CN3CCC2CC3)cc1 (stereo not drawn),.,20
CC(O)CP(c1ccccc1)c1ccccc1 (stereo not drawn),-0.6,7
CCC(=O)N1CC(=O)Nc2ccc(F)cc2C1c1ccccc1 (stereo not drawn),0.6,-7
CN(C)Cc1c[nH]c2ccccc12,-0.2&-1.5,-3
C1CCN(CC2COC3(CCCCC3)O2)CC1 (stereo not drawn),-1.0,-8
Cc1ccc(/C=C/[N+](=O)[O-])cc1,-4.8,.
CNC(C)[C@@H](O)c1ccc(O)cc1 (stereo partly drawn),-6.9,7
CCOC(=O)C1=C(N)Oc2c(c(=O)oc3ccccc23)C1c1ccccc1 (stereo not drawn),-1.1,.
CCCCC/C=C\C/C=C\C/C=C\C/C=C\CCCC(=O)N[C@H](C)CO,4.6,.
O=C(Cn1cc(/C=C2/C(=O)NC(=O)N(Cc3ccco3)C2=O)c2ccccc21)NCC1CCCO1 (stereo not drawn),46,-7
C/C(=N\O)c1ccc(C)nc1,-1.3,.
c1cncc(CNC2CC2)c1,0.5,5
CC(=O)N1c2nonc2N(C(C)=O)c2nonc21,-0.5,6
O=C1CC2OCC=C3CN4CC[C@]56c7ccccc7N1C5[C@H]2[C@H]3CC46 (stereo partly drawn),0.9,.
Cn1cc(Cl)c(C=C(C#N)C#N)n1,.,-36
O=C(CCN1C(=O)c2cccc([N+](=O)[O-])c2C1=O)Nc1ccc(Cl)cc1C(=O)c1ccccc1,-0.4,.

# A draw from above in order of length of the SMILES, lowest first:
SMILES,MgrA-DNA mod,S aureus helic
FCCOc1ccc(OCCF)cc1,-0.6,4
C/C(=N\O)c1ccc(C)nc1,-1.3,.
CC(O)CP(c1ccccc1)c1ccccc1 (stereo not drawn),-0.6,7
C1CCN(CC2COC3(CCCCC3)O2)CC1 (stereo not drawn),-1.0,-8
Cc1ccc(/C=C/[N+](=O)[O-])cc1,-4.8,.
CCOC(=O)C1=C(N)Oc2c(c(=O)oc3ccccc23)C1c1ccccc1 (stereo not drawn),-1.1,.
CCCCC/C=C\C/C=C\C/C=C\C/C=C\CCCC(=O)N[C@H](C)CO,4.6,.

# Further compounds.
SMILES,MgrA-DNA mod,S aureus helic
CNC(C)C(O)c1ccccc1 (stereo not drawn),-1.6,.
O=C1NC(=O)C(CCc2ccccn2)(CCc2ccccn2)C(=O)N1,-1.5,15
Cc1oc2cc(OC(=O)N(C)C)ccc2c(=O)c1-c1nc2ccccc2s1,.,10
Cc1cc(OCC(=O)C(C)(C)C)c2c3c(c(=O)oc2c1)CCCC3,-0.5,8
O=C1NC(=O)N(c2ccc3c(c2)OCO3)C(=O)/C1=C/c1ccsc1,13,5
CC1(C)CN=C(NCc2cccnc2)S1,-0.3,-1
CNC(=O)Oc1c(Cl)cc(Cl)cc1Cl,12,3
c1ccc(CC2CCCCN2)cc1 (stereo not drawn),-1.1,6
COc1ccc(CN2CCN(C)CC2)cc1Br,0.1,0
CC1=CC(=C2C(=O)NC(=O)NC2=O)C=C(C(F)(F)F)N1C(C)C,4.5,15
O=C(COc1ccc(Cl)cc1)OCc1csc2c1C1CCN2CC1,.,11
C=CCN1C(=O)C2(C(C#N)=C(N)OC(C)=C2C(=O)OC)c2ccccc21 (stereo not drawn),.,-6
Cc1nc(C(F)(F)F)ccc1C(=O)N1CCC2(CC1)OCCO2,-1.6,.
COc1ccccc1N1C(=O)NC(=O)/C(=C\C=C\c2ccco2)C1=O,4.2,14
COC(=O)N(c1ccccc1)P1(=S)OCCO1,19,-9
N#CC1(O)CN2CCC1CC2 (stereo not drawn),2.0,.
COc1cccc(/C=C(\C)[N+](=O)[O-])c1,-13,.
COCC(C)N=C=S (stereo not drawn),.,-19
O=C1NC(=S)NC(=O)C1=Cc1ccccc1,10,4
Cc1cc2oc(=O)c3c(c2c(O)c1CN1CCCCC1)CCCC3,-1.2,1
CCOC(=O)c1cc2c(cn1)[nH]c1ccccc12,-2.0,.
COC(=O)c1cccc(N2Cc3ccccc3C2=N)c1,.,-2
OC1C2CN3CCN(C2)CC1(c1ccccc1)C3 (stereo not drawn),4.5,14
CN1CCN(Cc2cn3ccccc3n2)CC1,1.2,-12
O=C(Nc1ccc(Br)cc1C(=O)c1ccccc1)c1ccco1,.,-4
CCN1C[C@]2(COC)CC[C@H](O)[C@@]34C5C[C@H]6C(OC)C5[C@](O)(C[C@H]6OC)C(O)(C(OC)C23)[C@@H]14 (stereo partly drawn),0.9,.
COc1ccc(C2NCCc3[nH]cnc32)cc1OC (stereo not drawn),5.2,-4
COc1cc2c(cc1-c1cc3cc4ccoc4cc3oc1=O)OCO2,3.5,.
O=C1CCN(C(=O)CCCn2c(=O)oc3ccccc32)CC1,.,-11
C/C(=C\c1ccccc1Cl)[N+](=O)[O-],3.8,.
CCOc1ccccc1Oc1coc2cc(OC(=O)N(C)C)ccc2c1=O,.,6
Cc1ccc(P(=O)(N2CCOCC2)N2CCOCC2)o1,.,-11
CNc1ccc2oc(C[C@@H]3OC4(CC[C@@H]3C)O[C@H](C(C)C(=O)c3ccc[nH]3)[C@H](C)C[C@H]4C)nc2c1C(=O)O (stereo partly drawn),-0.3,.
O=P1(c2ccccc2)C=CCC1 (stereo not drawn),.,2
CCCc1c(C)nc(SCc2c(F)cccc2Cl)nc1OC(=O)N(C)C,1.4,.
CC1(C)C2CCC13CSN1OC13C2 (stereo not drawn),.,-14
CCCn1cc(C(=O)O)c(C)n1,.,-1
c1cc2c(cc1CN1CCNCC1)OCO2,2.1,-8
CCc1ccc(CN2CCN(CC)CC2)cc1,-4.0,.
NCCc1ccccc1F,.,-2
COc1ccc(-n2c(C)nc3cc(C(=O)N4CCC5(CC4)OCCO5)ccc32)cc1,.,10
COC(=O)COc1ccc(/C=C2\C(=O)NC(=S)N(c3ccc(C)cc3)C2=O)cc1OC,7.1,.
NC(=NCCC[C@H](N)C(=O)O)N[N+](=O)[O-],2.4,.
Cc1cccc(N2CCN(CC#N)CC2)c1,-0.6,.
Oc1ccc2c3c1O[C@H]1[C@@H](O)CC[C@@]4(O)[C@@H](C2)N(CC2CCC2)CC[C@]314,9.6,.
Cc1ccc(C=C(C#N)C#N)cc1,0.0,.
[N-]=[N+]=CC(=O)OCC(N)C(=O)O (stereo not drawn),2.0,.
C/C=C1/C[N+]2(C)CCC34C(=C(C=O)[C@H]1C[C@@H]32)Nc1ccccc14 (stereo partly drawn),0.7,.
CCc1ccccc1-n1c(=S)[nH]c2ccccc2c1=O,2.7,.
C[C@H](N)[C@H](O)c1ccc(O)c(O)c1,-0.2,.
O=c1[nH]oc2c1CCNC2,1.6,.
CC1(C)CN=C(Nc2cccc(C(F)(F)F)c2)S1,1.7,.
CC(C(=O)NCC1CCCCC1)N1CC=C(c2ccccc2)CC1 (stereo not drawn),.,27
CC1(C)C(C(=O)NN2C(=O)c3ccccc3C2=O)C1(C)C,-1.4,-1
C=CCN1C(=O)CC(=O)NC1=S,1.5,3
c1ccc2sc(N3CCNCC3)nc2c1,.,-11
Cc1ccc(CN2CCCN(CC(N)=O)S2(=O)=O)cc1,.,16
NCCc1ccccn1,.,-13
CCC(=O)Nc1cc(C(=O)N2CCC3(CC2)OCCO3)ccc1S(=O)(=O)c1ccc(C)cc1,1.4,9
Cc1cc(/C=C2\C(=O)NC(=O)N(c3ccc(F)cc3)C2=O)c(C)n1-c1cccc(C(=O)O)c1,1.6,.

# Further results
SMILES,MgrA-DNA mod,S aureus helic
Cc1cccnc1-n1c(C)nc2ccccc2c1=O,0.6,3
O=S(=O)(c1ccc(Cl)cc1)N1CCCCC1c1cccnc1 (stereo not drawn),-1.2,3
C=CC1CN2CCC1CC2[C@H](O)c1cnc2ccccc2c1 (stereo partly drawn),0.2,-12
Cc1nc2cc(Cl)ccc2c(=O)n1-c1ccc(F)cc1,0.0,.
CCOc1ccc(NC(=O)C23CC4CC(CC(C4)C2)C3)cc1,-0.7,2
Cc1cc(-n2c(=S)[nH]c3ccccc3c2=O)ccc1Br,-1.9,.
CC1OP(=S)(C(Nc2ccccc2)c2ccccc2)OC1C (stereo not drawn),-3.9,7
O=C1CC(C(=O)c2ccccc2)CO1 (stereo not drawn),-0.5,.
Cn1c(=O)cc(SCC(=O)N2CCC3(CC2)OCCO3)c2ccccc21,.,-30
O=C(O)C(Cc1cnc[nH]1)NS(=O)(=O)c1cccs1 (stereo not drawn),.,-6
c1ccc2c(CNC3CCCCC3)c[nH]c2c1,.,-2
OC[C@@H]1CCCN2CCCC[C@H]12,1.2,.
Cc1ccc(NP(C(C)C)C(C)C)nc1,5.1,-1
S=C=NCC1CCCO1 (stereo not drawn),.,-16
Cc1ccc(NC2=NC(C)(C)CS2)cc1Cl,.,-23
O=C(O)C1C2c3ccccc3C(c3ccccc32)C1C(=O)O (stereo not drawn),-1.0,.
CSc1nc2ccccc2c(=O)n1-c1ccccc1C,0.0,3
CC(C)COC(C(=O)O)(c1ccccc1)c1ccccc1,.,4
CC(=O)N1CCC2(CC1)c1cccn1-c1ccccc1CN2C(=O)Nc1ccc(C)cc1C,.,7
O=C1CC(=O)N(c2cccc(F)c2)C(=S)N1,3.6,16
COc1cc(C=C2C(=O)N(C)C(=O)N(C)C2=O)ccc1Oc1ccc([N+](=O)[O-])cc1C#N,6.6,.

# As entered above.
# COc1ccc(CN2CCN(C)CC2)cc1Br @ MgrA-DNA mod: 0.1
# Cn1cc(Cl)c(C=C(C#N)C#N)n1 @ S aureus helic: -36

# A portion of the library (hit frequency here may not be typical).
